Assay outcomes as filed in PubChem BioAssay.
UCH37 inh: blocks the human deubiquitinase UCH37; purified proteasome/UCH37, Ub-AMC cleavage fluorescence; inhibition, % (test concentration not listed); 330,000 compounds, 0.33% hits;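 active = mean of two replicates above 20%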;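 also: 0% = compound-free wells with enzyme and 100% = wells lacking proteasome; stock transfer was 100 nL into about 20 µL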
Target sequence (Q9Y5K5 whole entry, looked up): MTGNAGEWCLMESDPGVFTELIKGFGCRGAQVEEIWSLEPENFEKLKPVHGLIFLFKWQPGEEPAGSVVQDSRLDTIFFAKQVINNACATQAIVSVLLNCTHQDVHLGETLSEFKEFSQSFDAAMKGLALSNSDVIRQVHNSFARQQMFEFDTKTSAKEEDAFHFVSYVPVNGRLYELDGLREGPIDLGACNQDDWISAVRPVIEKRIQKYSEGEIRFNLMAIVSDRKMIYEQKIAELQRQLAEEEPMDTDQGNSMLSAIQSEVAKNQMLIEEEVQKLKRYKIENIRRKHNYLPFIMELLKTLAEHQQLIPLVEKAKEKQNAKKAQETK
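Material: Human UCH37 enzyme supplied as purified proteasome complex | Schedule: 30 min preincubation with enzyme, 25 min cleavage at room temperature | Detection: AMC fluorescence 355/460 nm | Measure: % inhibition of Ub-AMC cleavage fluorescence | Controls: Wells without proteasome as full block, compound-free enzyme plus substrate as uninhibited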
T cruzi repl: blocks replication of Trypanosoma cruzi; T. cruzi beta-gal in NIH3T3, luminescence, 90 h; inhibition, % (no concentration beside the values); 300,000 compounds, 1.4% hits;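 active = mean inhibition across valid replicates above about 55%, limit read from the data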;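 also: signal also drops with host cell toxicity which is not excluded here; 0% = plate median of DMSO wells and 100% = zero luminescence signal; higher percent means less beta-gal luminescence so fewer parasites; stock transfer was 50 nL into about 50 µL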
Ecoli rRNA inh: inhibitors of bacterial rRNA selective over humanized ribosomes | E. coli WT GFP vs humanized-ribosome RFP mutants, fluorescence, 24 h; hits give low values; DMSO median 0, no signal -100 | GFP signal change (wild-type ribosome), % (test concentration not listed) | 350,000 compounds, 1.6% hits | AID 720706;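 active = significant combined selectivity score with lowered wild-type GFP, culture density cut under 30%, mutant RFP and density less affected; inactive = any of these conditions unmet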; also: one replicate is shown; some compounds called inactive have numbers as strong as hits
Bfl-1 A1 inh: inhibitors of the anti-apoptotic protein A1, read as caspase activation; MEF A1-2A-BIM cells, Caspase-Glo 3/7 luminescence, 3 h; percent of clofoctol response, vehicle zero; 330,000 compounds, 0.066% hits; AID 2462; caspase activation, % (no concentration beside the values);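 active = over half of replicate activation scores above 10%, or exactly half above 10 with the replicate mean above 10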;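 also: wells of about 30 µL received 50 nL stock; many hits fall short of the cut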
E coli growth: inhibitors of Escherichia coli growth. AID 1053175. OD600 absorbance (test concentration not listed). OD600, 23 h; hits give low values. 330,000 compounds, 0.21% hits;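 active = OD600 absorbance below the run mean of sample wells minus 3.6 SD, in any replicate, cut at about 0.56 in these data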;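 also: stock transfer was 300 nL into about 60 µL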
AF4-AF9 inh: inhibitors of human MLL-AF4/AF9 interaction; AlphaScreen, biotin-AF4 peptide binding to FLAG-AF9; 350,000 compounds, 0.47% hits; inhibition, % at 10 µM;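 active = every replicate reaching a set inhibition limit, whatever the replicate mean, cut at about 25% in these data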;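 also: 0% = plate neutral control median and 100% = total signal loss; the record names both 10 and 1 µM as test concentration; the first replicate is given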
Target sequence (P42568 whole entry, looked up): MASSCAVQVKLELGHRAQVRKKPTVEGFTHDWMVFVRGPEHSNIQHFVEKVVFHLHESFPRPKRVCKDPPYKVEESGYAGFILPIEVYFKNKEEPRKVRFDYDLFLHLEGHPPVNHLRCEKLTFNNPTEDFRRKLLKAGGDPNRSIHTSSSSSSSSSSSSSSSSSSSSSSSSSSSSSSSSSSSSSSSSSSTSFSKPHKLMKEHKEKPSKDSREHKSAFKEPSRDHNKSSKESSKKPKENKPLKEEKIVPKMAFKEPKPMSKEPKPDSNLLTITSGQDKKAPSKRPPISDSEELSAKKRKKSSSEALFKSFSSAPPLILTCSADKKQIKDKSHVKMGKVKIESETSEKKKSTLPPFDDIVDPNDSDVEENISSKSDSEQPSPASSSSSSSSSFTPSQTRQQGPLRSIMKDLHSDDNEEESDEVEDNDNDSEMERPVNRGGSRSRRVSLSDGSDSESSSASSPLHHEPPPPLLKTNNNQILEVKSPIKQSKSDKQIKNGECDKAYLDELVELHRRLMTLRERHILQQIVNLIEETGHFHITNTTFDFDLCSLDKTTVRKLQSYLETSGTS
Beta apoptosis: beta cell apoptosis inhibition. INS-1E cytokine-induced death, ATP luminescence, 48 h; percent of positive-control rescue, neutral wells zero. protection from apoptosis, % (no concentration beside the values). 300,000 compounds, 0.8% hits. AID 435005;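 active = all replicates at 75% or more, or half of them and the mean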;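 also: 0% = cytokine-treated negative control wells and 100% = positive control rescue; higher means more ATP so stronger rescue from cytokine killing; wells of about 40 µL received 100 nL stock; the first replicate is given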
FGF22 binding: FGF22 (human) thermal shift binding; Q9HCT0; recombinant FGF22 thermal shift, SYPRO orange fluorescence; percent of sucrose octasulfate shift, DMSO zero; calls only at 9.99 µM; 340,000 compounds, 1.5% hits; AID 651658;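 active = melting point raised past a set limit in the mean and every replicate; three in four hits are not shown here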
Target sequence (Q9HCT0 whole entry, looked up): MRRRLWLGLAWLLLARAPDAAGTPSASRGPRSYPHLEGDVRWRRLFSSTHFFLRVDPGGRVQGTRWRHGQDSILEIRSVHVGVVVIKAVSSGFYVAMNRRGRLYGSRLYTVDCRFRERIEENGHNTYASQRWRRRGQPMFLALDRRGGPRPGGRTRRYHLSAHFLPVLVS
Ecoli rRNA inh OD600: also measured in Ecoli rRNA inh; calls as there; OD600 change, %; measured here: OD600 growth;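 optical density of the mix in the first replicate; 0 = DMSO median and -100 = no signal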
Ecoli rRNA inh RFP: also measured in Ecoli rRNA inh; calls as there; RFP signal change, %; measured here: RFP humanized mutant strains;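 first replicate; 0 = DMSO median and -100 = no signal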
* marks the source's active call; other numbers are inactive results.

O=S(=O)(c1ccc(F)cc1)N1CCc2ccccc21 was read as UCH37 inh 3.5, T cruzi repl -9, Ecoli rRNA inh 2, Bfl-1 A1 inh 0.1, E coli growth 0.67, AF4-AF9 inh -6.2, Beta apoptosis -2, FGF22 binding inactive, Ecoli rRNA inh OD600 3 and Ecoli rRNA inh RFP -0.2.
Screening CCc1nnc(NC(=O)C2=NN(C3CCS(=O)(=O)C3)C(=O)CC2)s1 (centres undefined) returned UCH37 inh 4.0, T cruzi repl -17, Ecoli rRNA inh 11, Bfl-1 A1 inh 0.4, E coli growth 0.72, AF4-AF9 inh -3.9, Beta apoptosis -3, FGF22 binding inactive, Ecoli rRNA inh OD600 11 and Ecoli rRNA inh RFP 2.9.
Screening CC1(C)CC(=O)C(C=Nc2ccc3cn[nH]c3c2)=C(O)C1 returned UCH37 inh 10, T cruzi repl -11, Bfl-1 A1 inh -0.4, E coli growth 0.71 and Beta apoptosis -4.
Screening CCc1ccccc1NC(=O)CSc1ccsc1[N+](=O)[O-] returned UCH37 inh 1.4, T cruzi repl 12, Bfl-1 A1 inh 0.7 and Beta apoptosis 0.
`Cc1onc(-c2ccccc2)c1C(=O)N1CC(C)OC(C)C1` (centres undefined) gave UCH37 inh 1.9, T cruzi repl -24, Bfl-1 A1 inh 0.3, E coli growth 0.71 and Beta apoptosis -3.
`N#CC1(NC(=O)CSc2nnc(-c3ccccc3F)o2)CCCCC1` gave UCH37 inh 0.3, T cruzi repl -1, Ecoli rRNA inh -1, Bfl-1 A1 inh 0.0, E coli growth 0.68, AF4-AF9 inh 11, Beta apoptosis 1, FGF22 binding inactive, Ecoli rRNA inh OD600 1 and Ecoli rRNA inh RFP 1.1.
For COc1ccc(NC(=O)CS(=O)CC(=O)Nc2cccc3cccnc23)cc1 (centres undefined) the results were UCH37 inh 0.6, T cruzi repl 0, Ecoli rRNA inh -4, Bfl-1 A1 inh 0.8, E coli growth 0.67, AF4-AF9 inh 2.4, Beta apoptosis -2, FGF22 binding inactive, Ecoli rRNA inh OD600 5 and Ecoli rRNA inh RFP -2.7.
Screening CC(=O)Nc1cccc(-c2cc(-c3c(Cl)cccc3Cl)no2)c1 returned UCH37 inh 5.2, T cruzi repl 53, Bfl-1 A1 inh -0.3, E coli growth 0.64, AF4-AF9 inh -1.2, Beta apoptosis -6 and FGF22 binding inactive.
`O=C(CN1C(=O)NC2(CCc3ccccc32)C1=O)NCc1cccc(C(F)(F)F)c1` (centres undefined) gave UCH37 inh -1.5, Ecoli rRNA inh 4, Bfl-1 A1 inh 0.9, E coli growth 0.71, AF4-AF9 inh 1.6, Beta apoptosis 1, FGF22 binding inactive, Ecoli rRNA inh OD600 10 and Ecoli rRNA inh RFP 1.9.
CC[N+](C)(CC)CCOC(=O)C1c2ccccc2Oc2ccccc21 was read as UCH37 inh 2.5, Bfl-1 A1 inh 1.9, E coli growth 0.67, AF4-AF9 inh -10, Beta apoptosis -8 and FGF22 binding inactive.
For COCc1ccc(-c2ccc3c(c2)c(C#Cc2ccsc2)c(-c2cc(OC)cc(OC)c2)n3C)cc1 the results were UCH37 inh 4.0, Ecoli rRNA inh 6, Bfl-1 A1 inh 0.5, E coli growth 0.83, AF4-AF9 inh -0.1, Beta apoptosis 0, FGF22 binding inactive, Ecoli rRNA inh OD600 5 and Ecoli rRNA inh RFP -0.6.
For COc1ccc(-c2ncncc2-c2csc(C)n2)c(O)c1OC the results were UCH37 inh 2.1, T cruzi repl -5, Bfl-1 A1 inh 0.2, E coli growth 0.68 and Beta apoptosis 4.
`Cc1cccc2sc(NC(=O)c3ccc(OCC4CCCO4)cc3)nc12` (centres undefined) gave UCH37 inh -3.7, T cruzi repl 33, Ecoli rRNA inh -10, Bfl-1 A1 inh -0.5, E coli growth 0.71, AF4-AF9 inh -0.3, Beta apoptosis 10, FGF22 binding inactive, Ecoli rRNA inh OD600 2 and Ecoli rRNA inh RFP 4.2.
Screening CCCC(=O)NC(=S)Nc1ccccc1C(F)(F)F returned UCH37 inh 4.3, T cruzi repl -14, Bfl-1 A1 inh 0.5, E coli growth 0.69 and Beta apoptosis -5.
`CC(=O)Nc1ccc(-c2csc(NC(=O)CCCc3cccs3)n2)cc1` gave UCH37 inh 7.0, T cruzi repl -20, Ecoli rRNA inh -30, Bfl-1 A1 inh -0.8, E coli growth 0.68, AF4-AF9 inh -0.9, Beta apoptosis 2, FGF22 binding active, Ecoli rRNA inh OD600 -50 and Ecoli rRNA inh RFP -4.7.
c1ccc(COc2ccc(CNCc3cccnc3)cc2)cc1 was read as UCH37 inh 0.1, T cruzi repl -14, Ecoli rRNA inh 12, Bfl-1 A1 inh -2.1, E coli growth 0.65, AF4-AF9 inh 1.6, Beta apoptosis -5, FGF22 binding inactive, Ecoli rRNA inh OD600 16 and Ecoli rRNA inh RFP 3.2.
Screening CC(=O)C[C@@H](O)CC(=O)[C@@H]1OC(=O)CCCCCCCc2ccccc21 returned UCH37 inh 1.4, Ecoli rRNA inh -14, Bfl-1 A1 inh 1.2, AF4-AF9 inh -0.6, Beta apoptosis 1, FGF22 binding inactive, Ecoli rRNA inh OD600 -9 and Ecoli rRNA inh RFP 0.3.
`COc1ccc(OC)c(NC(=O)c2cc3ccccc3cc2OC)c1` gave UCH37 inh 3.8, T cruzi repl 0, Ecoli rRNA inh -22, Bfl-1 A1 inh 0.6, E coli growth 0.71, AF4-AF9 inh 0.4, Beta apoptosis -1, FGF22 binding inactive, Ecoli rRNA inh OD600 -26 and Ecoli rRNA inh RFP -4.1.
`Cc1nc(NC2CCCC2)sc1C(=O)N(C)C` gave UCH37 inh 1.8, T cruzi repl -8, Bfl-1 A1 inh 0.2, E coli growth 0.73 and Beta apoptosis 1.
Screening COC(=O)c1cc(NC2c3ccccc3C(=O)N2Cc2ccco2)cc(C(=O)OC)c1 (centres undefined) returned UCH37 inh -5.7, Ecoli rRNA inh 2, Bfl-1 A1 inh 0.3, E coli growth 0.74, AF4-AF9 inh 2.5, Beta apoptosis -7, FGF22 binding inactive, Ecoli rRNA inh OD600 11 and Ecoli rRNA inh RFP -0.9.
Screening COc1cc(NC(=O)c2cccc(Br)c2)nc(OC)n1 returned UCH37 inh -0.7, T cruzi repl -8, Ecoli rRNA inh -31, Bfl-1 A1 inh -2.2, E coli growth 0.62, AF4-AF9 inh -2.3, Beta apoptosis 0, Ecoli rRNA inh OD600 -35 and Ecoli rRNA inh RFP -4.4.
O=C(NCCc1ccccc1)c1ccc(CS(=O)(=O)Cc2ccccc2F)o1 was read as UCH37 inh 2.5, T cruzi repl 9, Bfl-1 A1 inh -0.6, E coli growth 0.66 and Beta apoptosis 5.
O=C(NC(NC(=S)Nc1ccccc1Cl)C(Cl)(Cl)Cl)c1cccc(Cl)c1 (centres undefined) was read as UCH37 inh -2.4, T cruzi repl 60*, Bfl-1 A1 inh 0.0, E coli growth 0.7 and Beta apoptosis 49.
O=C(NCCc1ccccc1)C1CCN(C2CCN(C(=O)CC3=CCCCC3)CC2)CC1 was read as UCH37 inh -0.6, T cruzi repl 22, Ecoli rRNA inh 10, Bfl-1 A1 inh 0.7, E coli growth 0.69, AF4-AF9 inh -8.0, Beta apoptosis -1, FGF22 binding inactive, Ecoli rRNA inh OD600 -3 and Ecoli rRNA inh RFP 0.6.
Screening O=C(O)C1CC=C(Cl)CC1C(=O)NCC1OCCc2ccccc21 (centres undefined) returned UCH37 inh -5.8, T cruzi repl 10, Bfl-1 A1 inh 0.5, E coli growth 0.77 and Beta apoptosis 0.
`O=C(O)Cc1sc(NCc2ccco2)nc1-c1ccccc1` gave UCH37 inh 3.1, T cruzi repl 7, Ecoli rRNA inh -2, Bfl-1 A1 inh 1.2, E coli growth 0.72, AF4-AF9 inh -4.5, Beta apoptosis -1, FGF22 binding inactive, Ecoli rRNA inh OD600 3 and Ecoli rRNA inh RFP -1.8.
`CN1C(=O)CC(=O)N(C)c2cc(S(=O)(=O)N(C)Cc3ccccc3)ccc21` gave UCH37 inh 2.0, T cruzi repl 1, Ecoli rRNA inh 7, Bfl-1 A1 inh -0.5, E coli growth 0.64, AF4-AF9 inh -7.8, Beta apoptosis 0, FGF22 binding inactive, Ecoli rRNA inh OD600 14 and Ecoli rRNA inh RFP 2.3.
Screening CC(=O)/C(=N/Nc1ccc([N+](=O)[O-])cc1)N1CCCc2ccccc21 returned T cruzi repl 9, Ecoli rRNA inh 14, Bfl-1 A1 inh -0.2, AF4-AF9 inh -6.1, Beta apoptosis 14, FGF22 binding inactive, Ecoli rRNA inh OD600 7 and Ecoli rRNA inh RFP 4.7.
For CC(C)COC(=O)N1CCCC1C(=O)O (centres undefined) the results were UCH37 inh 0.9, T cruzi repl -13, Ecoli rRNA inh 17, Bfl-1 A1 inh 1.5, E coli growth 0.68, Beta apoptosis -5, Ecoli rRNA inh OD600 11 and Ecoli rRNA inh RFP -0.7.
`CCN(Cc1ccccc1)C(=O)COC(=O)c1cc(S(=O)(=O)Nc2ccccc2OC)ccc1O` gave UCH37 inh 1.5, Bfl-1 A1 inh 0.0, E coli growth 0.69, AF4-AF9 inh -0.8, Beta apoptosis 4 and FGF22 binding inactive.
Screening Cc1cc(S(=O)(=O)N2CCOCC2)ccc1F returned UCH37 inh 3.5, T cruzi repl -4, Bfl-1 A1 inh -0.6, E coli growth 0.72 and Beta apoptosis -3.
For FC(F)(F)c1nc(N2CCCC2)ncc1-c1nnnn1-c1ccc(Cl)cc1 the results were UCH37 inh 2.3, T cruzi repl -27, Bfl-1 A1 inh 0.6, E coli growth 0.7 and Beta apoptosis 33.
CCCNC(=O)Cn1cnc2sc(C(=O)Nc3ccc4c(c3)OCO4)c(C)c2c1=O was read as UCH37 inh -9.6, T cruzi repl 6, Ecoli rRNA inh 24, Bfl-1 A1 inh -3.8, E coli growth 0.77, AF4-AF9 inh 3.6, Beta apoptosis -1, FGF22 binding inactive, Ecoli rRNA inh OD600 15 and Ecoli rRNA inh RFP -5.0.

Structural class: the compounds so far with a COOH group.
Screening O=C(O)C1CC=C(Cl)CC1C(=O)NCC1OCCc2ccccc21 (centres undefined) returned UCH37 inh -5.8, T cruzi repl 10, Bfl-1 A1 inh 0.5, E coli growth 0.77 and Beta apoptosis 0.
`O=C(O)Cc1sc(NCc2ccco2)nc1-c1ccccc1` gave UCH37 inh 3.1, T cruzi repl 7, Ecoli rRNA inh -2, Bfl-1 A1 inh 1.2, E coli growth 0.72, AF4-AF9 inh -4.5, Beta apoptosis -1, FGF22 binding inactive, Ecoli rRNA inh OD600 3 and Ecoli rRNA inh RFP -1.8.
For CC(C)COC(=O)N1CCCC1C(=O)O (centres undefined) the results were UCH37 inh 0.9, T cruzi repl -13, Ecoli rRNA inh 17, Bfl-1 A1 inh 1.5, E coli growth 0.68, Beta apoptosis -5, Ecoli rRNA inh OD600 11 and Ecoli rRNA inh RFP -0.7.

These rows are one share of the data; rates above refer to the full screens.
